# NOMO-1 viab = NOMO-1 AML cell viability reduction, primary screen, STK33 inhibitor project, CellTiter-Glo luminescence; NOMO-1 AML viability, 72 h; inhibition, % (no concentration beside the values); 37,000 compounds, 7.5% hits;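 active means most replicates above 80%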;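 further: wells of about 30 µL received 25 nL stock; 0% = median of vehicle wells and 100% = reference inhibitor level; the first replicate is given; inactives centre near 10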
# An asterisk follows results filed as active. A portion of the library, so the mix of outcomes need not match the whole.
SMILES,NOMO-1 viab
C[C@H]1CN([C@@H](C)CO)C(=O)c2cc(NC(=O)Nc3ccccc3)ccc2O[C@@H]1CN(C)S(=O)(=O)c1ccc(F)cc1,2.3
C[C@H](CO)N1C[C@H](C)[C@H](CN(C)C(=O)Nc2ccccc2)Oc2ccc(NC(=O)CCCN(C)C)cc2C1=O,22.2
CC(C)NC(=O)N(C)C[C@H]1Oc2c(NC(=O)c3ccncc3)cccc2C(=O)N([C@@H](C)CO)C[C@H]1C,-16.5
CC1CCC(C(C)C)C(NC(=S)Nc2cccc(F)c2)C1 (centres undefined),121.8*
CS(=O)(=O)/C(C#N)=C/Nc1cnccn1,5.7
N#CCCN(CCC#N)C(=O)C1c2ccccc2Oc2ccccc21,22.9
COc1ccc(NC(=O)Nc2ccc3c(c2)CC(=O)N([C@@H](C)CO)C[C@H](C)[C@@H](CN(C)Cc2ccc4c(c2)OCO4)O3)cc1,23.0
COc1ccc(NC(=O)Nc2cccc3c2O[C@@H](CN(C)C(=O)Nc2ccc(F)cc2)[C@H](C)CN([C@H](C)CO)C3=O)cc1,-5.3
Cc1ccc(S(=O)(=O)N(C)C[C@H]2Oc3c(cccc3N(C)C)C(=O)N([C@H](C)CO)C[C@H]2C)cc1,-13.2
Cn1c(S(=O)(=O)CC(N)=O)nc2ccccc21,65.0
Cc1noc(C)c1NC(=O)Nc1cccc2c1O[C@@H](CN(C)C(=O)NC1CCCCC1)[C@H](C)CN([C@@H](C)CO)C2=O,-6.0
C[C@H]1CN([C@@H](C)CO)C(=O)c2cc(NS(=O)(=O)c3ccccc3)ccc2O[C@@H]1CN(C)Cc1ccc2c(c1)OCO2,0.6

# A few values from the results shown.
# `CC1CCC(C(C)C)C(NC(=S)Nc2cccc(F)c2)C1` (centres undefined) in NOMO-1 viab shows 121.8*
# `COc1ccc(NC(=O)Nc2cccc3c2O[C@@H](CN(C)C(=O)Nc2ccc(F)cc2)[C@H](C)CN([C@H](C)CO)C3=O)cc1` in NOMO-1 viab shows -5.3
# `Cn1c(S(=O)(=O)CC(N)=O)nc2ccccc21` in NOMO-1 viab shows 65.0

# The list goes on.
SMILES,NOMO-1 viab
Cc1noc(C)c1S(=O)(=O)Nc1ccc2c(c1)C(=O)N([C@H](C)CO)C[C@H](C)[C@@H](CN(C)C(=O)NC(C)C)OCCCC[C@@H](C)O2,12.6
C[C@@H]1CN([C@H](C)CO)C(=O)c2cccc(NS(=O)(=O)c3cccs3)c2O[C@@H]1CN(C)Cc1ccccc1,-7.1
C[C@@H]1CN([C@@H](C)CO)C(=O)c2cccc(NC(=O)c3nc4ccccc4s3)c2O[C@@H]1CN(C)S(=O)(=O)c1cn(C)cn1,4.9
C[C@@H]1CN([C@H](C)CO)C(=O)c2cc(NS(=O)(=O)c3ccc(F)cc3)ccc2O[C@@H]1CN(C)Cc1ccc(C(F)(F)F)cc1,112.0*
Cc1noc(C)c1NC(=O)Nc1ccc2c(c1)C(=O)N([C@H](C)CO)C[C@H](C)[C@H](CN(C)S(=O)(=O)c1cccs1)O2,-3.8
C[C@H]1CN([C@@H](C)CO)C(=O)c2cc(NC(=O)C3CC3)ccc2O[C@H]1CN(C)S(=O)(=O)c1cccs1,11.0
C[C@H](CO)N1C[C@H](C)[C@H](CN(C)C(=O)NC2CCCCC2)Oc2ccc(NC(=O)Nc3ccc4c(c3)OCO4)cc2CC1=O,24.0
COc1ccc(CN(C)C[C@@H]2OCCCC[C@@H](C)Oc3ccc(NS(=O)(=O)c4c(C)noc4C)cc3C(=O)N([C@H](C)CO)C[C@@H]2C)cc1,15.9
Cc1noc(C)c1S(=O)(=O)N(C)C[C@@H]1Oc2ccc(NC(=O)Cc3cn(C)c4ccccc34)cc2CC(=O)N([C@@H](C)CO)C[C@@H]1C,17.4
Cc1nc(SCC(=O)c2cccs2)c2c3c(sc2n1)CCCC3,15.8
C[C@H](CO)N1C[C@H](C)[C@@H](CN(C)Cc2ccc(C(F)(F)F)cc2)Oc2c(NC(=O)Nc3ccc4c(c3)OCO4)cccc2C1=O,104.6*
Cc1noc(C)c1NC(=O)N(C)C[C@H]1Oc2c(NC(=O)C3CCCCC3)cccc2C(=O)N([C@@H](C)CO)C[C@@H]1C,-2.5
C[C@H](CO)N1C[C@H](C)[C@H](CN(C)C(=O)Nc2ccccc2)Oc2ccc(NC(=O)c3ccncc3)cc2CC1=O,8.0
C[C@H]1CN([C@@H](C)CO)C(=O)Cc2cc(NC(=O)Nc3ccc(F)cc3)ccc2O[C@H]1CN(C)C,23.4
C[C@@H]1CN([C@@H](C)CO)C(=O)c2cc(NC(=O)Cn3cnnn3)ccc2O[C@H]1CN(C)Cc1ccc2c(c1)OCO2,7.3
C[C@H]1CN([C@@H](C)CO)C(=O)Cc2cc(NC(=O)Cc3ccccc3)ccc2O[C@H]1CN(C)S(=O)(=O)c1ccc(Cl)cc1,31.8
C[C@@H]1CN([C@H](C)CO)C(=O)c2cc(NS(=O)(=O)c3ccc(Cl)cc3)ccc2O[C@@H]1CN(C)S(=O)(=O)c1ccccc1,9.0
O=C(O)C1CC=CCC1C(=O)Nc1ccccc1 (centres undefined),12.6
COc1ccc(CN(C)C[C@@H]2Oc3ccc(NC(=O)Cn4cnnn4)cc3C(=O)N([C@H](C)CO)C[C@H]2C)cc1,5.6
CC(C)NC(=O)Nc1ccc2c(c1)C(=O)N([C@H](C)CO)C[C@H](C)[C@@H](CN(C)S(=O)(=O)c1cn(C)cn1)OCCCC[C@@H](C)O2,-7.6
O=C(NCCCn1ccnc1)C1CC(c2cccc(Br)c2)=NO1 (centres undefined),17.7
Cc1noc(C)c1NC(=O)Nc1ccc2c(c1)CC(=O)N([C@H](C)CO)C[C@@H](C)[C@@H](CN(C)Cc1ccc(C(=O)O)cc1)O2,-10.1
C[C@@H]1CN([C@@H](C)CO)C(=O)c2cccc(NC(=O)c3ccncc3)c2O[C@@H]1CN(C)S(=O)(=O)c1cn(C)cn1,0.7
C[C@H]1CN([C@@H](C)CO)C(=O)c2cccc(NS(=O)(=O)c3ccc(F)cc3)c2O[C@H]1CN(C)CC1CC1,16.4
COc1ccc(N(C(=O)c2cccnc2)S(=O)(=O)c2ccc3c(c2)n(C)c(=O)n3C)cc1,14.9
COc1ccc(CN(C)C[C@@H]2Oc3ccc(NS(=O)(=O)c4cccs4)cc3C(=O)N([C@H](C)CO)C[C@H]2C)cc1,15.3
C[C@H]1CN([C@@H](C)CO)C(=O)c2cc(NC(=O)Nc3cccc4ccccc34)ccc2O[C@H]1CN(C)C(=O)Nc1ccccc1,-3.3
Cc1ccc(S(=O)(=O)N(C)C[C@H]2Oc3c(NC(=O)C4CCCCC4)cccc3C(=O)N([C@H](C)CO)C[C@@H]2C)cc1,29.9
COc1ccc(C(=O)c2ccccc2)c(Oc2nc([N+](=O)[O-])nn2C)c1,21.6
C=C(C)[C@@]12O[C@@H]1[C@@]1(C)C(=CC2=O)CC[C@@H](O)[C@@H]1C,113.9*
C[C@H](CO)N1C[C@H](C)[C@H](CN(C)Cc2ccccc2)Oc2ccc(NC(=O)c3ccncc3)cc2C1=O,21.8
C[C@H]1CN([C@@H](C)CO)C(=O)c2cccc(NC(=O)CCCCCC(=O)Nc3ccccc3N)c2O[C@H]1CN(C)S(=O)(=O)c1ccc(Cl)cc1,115.2*
C[C@H]1CN([C@@H](C)CO)C(=O)c2cc(NC(=O)CCN3CCOCC3)ccc2O[C@@H]1CN(C)Cc1ccc(Oc2ccccc2)cc1,10.4
Nc1nn(S(=O)(=O)c2cccc3nsnc23)cc1-c1ccc(Br)cc1,34.4
COc1ccccc1NC(=O)CSc1nc2ccc(NC(=O)c3ccccc3OC)cc2s1,5.8
O=C(Nc1cccc(NS(=O)(=O)c2cccc([N+](=O)[O-])c2)c1)c1cccs1,30.1
Cc1ccc(NC(=O)C(Cc2ccccc2)N2C(=O)C3C4CCC(C4)C3C2=O)cc1[N+](=O)[O-] (centres undefined),33.1
C[C@@H]1CN([C@@H](C)CO)C(=O)c2cc(NC(=O)c3ccncc3)ccc2O[C@H]1CN(C)S(=O)(=O)c1ccccc1,-2.8
C[C@H]1CN([C@@H](C)CO)C(=O)c2cc(NC(=O)Nc3ccc(C(F)(F)F)cc3)ccc2O[C@H]1CN(C)Cc1ccc(Cl)c(Cl)c1,106.9*
C[C@@H]1CN([C@@H](C)CO)C(=O)c2cccc(NC(=O)C3CC3)c2O[C@@H]1CN(C)C,-7.7
Cc1ccc(S(=O)(=O)N(C)C[C@H]2Oc3ccc(NS(=O)(=O)c4ccccc4)cc3C(=O)N([C@@H](C)CO)C[C@H]2C)cc1,15.6
C/C(=C\C=C\C(C)C)CCC/C(C)=C/COc1c(O)cc2c(c1O)CNC2=O,50.0
C[C@@H]1CCCCO[C@H](CN(C)C(=O)c2ccccc2)[C@@H](C)CN([C@H](C)CO)C(=O)c2cc(NC(=O)C3CCCCC3)ccc2O1,0.4
CN(C)c1nc(SCCO)nc(N(C)C)n1,33.8
COc1ccc(S(=O)(=O)Nc2ccc3c(c2)C(=O)N([C@H](C)CO)C[C@@H](C)[C@H](CN(C)C(=O)Nc2ccc4c(c2)OCO4)O3)cc1,7.6
COc1ccc(NC(=O)Nc2ccc3c(c2)C(=O)N([C@@H](C)CO)C[C@@H](C)[C@H](CN(C)Cc2ccc(-c4ccccc4)cc2)O3)cc1,97.1*
C[C@@H]1CN([C@H](C)CO)C(=O)c2cc(N(C)C)ccc2O[C@@H]1CN(C)Cc1ccc(Cl)c(Cl)c1,30.6
CCOc1ccc2nc(NCCCO)[nH]c2c1,21.3
C[C@H](CO)N1C[C@H](C)[C@@H](CN(C)Cc2ccccc2)Oc2c(NC(=O)c3cnccn3)cccc2C1=O,26.7
C[C@H](CO)N1C[C@H](C)[C@H](CN(C)CC2CCCCC2)Oc2ccc(NC(=O)Cc3cn(C)c4ccccc34)cc2C1=O,4.7
CC(C)NC(=O)Nc1ccc2c(c1)C(=O)N([C@H](C)CO)C[C@H](C)[C@H](CN(C)CC1CC1)OCCCC[C@@H](C)O2,-15.2
C[C@H]1CN([C@@H](C)CO)C(=O)c2cccc(NC(=O)C3CCOCC3)c2O[C@@H]1CN(C)S(=O)(=O)c1cccs1,-4.6
Cc1cc(OCC(=O)Nc2ccccc2[N+](=O)[O-])ccc1Cl,-1.1
C[C@@H]1CN([C@@H](C)CO)C(=O)c2cccc(NC(=O)c3cnccn3)c2O[C@H]1CN(C)C(=O)Nc1ccc(F)cc1,17.1
C[C@@H]1CN([C@H](C)CO)C(=O)c2cccc(NS(C)(=O)=O)c2O[C@@H]1CN(C)C(=O)Nc1ccccc1,4.2
COc1ccc(NC(=S)NC(=O)C(C)Oc2ccc(Cl)cc2Cl)c([N+](=O)[O-])c1 (centres undefined),14.0
CC(C)NC(=O)N(C)C[C@@H]1Oc2ccc(NC(=O)Nc3cccc4ccccc34)cc2C(=O)N([C@@H](C)CO)C[C@@H]1C,23.4
COC(=O)c1c(NC(=O)CSc2ncn[nH]2)sc2c1CCCC2,32.5
Cc1ccc(C(Nc2ccccn2)c2ccc3ccc(C)nc3c2O)cc1 (centres undefined),132.0*
CCC(C(N)=O)c1ccccc1 (centres undefined),21.6

# Ordered by number of heavy atoms (highest first): part of the list above.
SMILES,NOMO-1 viab
Cc1noc(C)c1S(=O)(=O)Nc1ccc2c(c1)C(=O)N([C@H](C)CO)C[C@H](C)[C@@H](CN(C)C(=O)NC(C)C)OCCCC[C@@H](C)O2,12.6
C[C@H]1CN([C@@H](C)CO)C(=O)c2cc(NC(=O)Nc3cccc4ccccc34)ccc2O[C@H]1CN(C)C(=O)Nc1ccccc1,-3.3
Cc1noc(C)c1NC(=O)Nc1ccc2c(c1)C(=O)N([C@H](C)CO)C[C@H](C)[C@H](CN(C)S(=O)(=O)c1cccs1)O2,-3.8
COc1ccc(C(=O)c2ccccc2)c(Oc2nc([N+](=O)[O-])nn2C)c1,21.6
CS(=O)(=O)/C(C#N)=C/Nc1cnccn1,5.7

# (next part)
SMILES,NOMO-1 viab
COC(=O)c1ccc(NC(=O)CCC(=O)c2ccc(Br)cc2)cc1,13.4
CS(=O)(=O)N(CC(=O)Nc1ccc(F)cc1)c1cccc(Br)c1,11.5
COC(=O)c1ccsc1NC(=O)CN1c2cccc3cccc(c23)S1(=O)=O,-10.6
Cc1ccccc1CN1C(=O)C(O)(CC(=O)c2ccncc2)c2cc(Cl)ccc21 (centres undefined),128.5*
COc1ccc2oc(=O)c(-c3cnc(C)s3)cc2c1,12.4
COc1ccc(NC(=O)Nc2ccc3c(c2)CC(=O)N([C@H](C)CO)C[C@@H](C)[C@H](CN(C)C)O3)cc1,7.2
COc1ccc(CN(C)C[C@H]2Oc3ccc(NC(=O)Cc4cn(C)c5ccccc45)cc3C(=O)N([C@@H](C)CO)C[C@@H]2C)cc1,-17.3
COc1ccc(CN(C)C[C@@H]2Oc3ccc(NC(=O)C4CCCCC4)cc3CC(=O)N([C@@H](C)CO)C[C@@H]2C)cc1,-15.6
C[C@@H]1CN([C@H](C)CO)C(=O)Cc2cc(N(C)C)ccc2O[C@H]1CN(C)Cc1ccncc1,-3.8
Cc1ccc(S(=O)(=O)Nc2ccc3c(c2)C(=O)N([C@H](C)CO)C[C@H](C)[C@H](CN(C)S(C)(=O)=O)OCCCC[C@@H](C)O3)cc1,6.8
C[C@@H]1CN([C@@H](C)CO)C(=O)c2cccc(NC(=O)Nc3ccc4c(c3)OCO4)c2O[C@H]1CN(C)C,-15.7
CNC[C@H]1Oc2c(NS(=O)(=O)c3ccccc3)cccc2C(=O)N([C@@H](C)CO)C[C@@H]1C,-4.0
C[C@H](CO)N1C[C@H](C)[C@@H](CN(C)Cc2ccc(Oc3ccccc3)cc2)Oc2ccc(NS(C)(=O)=O)cc2C1=O,-12.4
C[C@H](CO)N1C[C@H](C)[C@@H](CN(C)C)Oc2ccc(NC(=O)CCCCCC(=O)Nc3ccccc3N)cc2C1=O,-12.5
Cc1noc(C)c1NC(=O)Nc1ccc2c(c1)C(=O)N([C@@H](C)CO)C[C@@H](C)[C@H](CN(C)C(=O)Nc1cccc3ccccc13)O2,5.3
Cc1ccc(S(=O)(=O)Nc2ccc3c(c2)C(=O)N([C@H](C)CO)C[C@H](C)[C@@H](CN(C)S(=O)(=O)c2ccc(C)cc2)OCCCC[C@@H](C)O3)cc1,60.7
